# Env fusion inh – blocks HIV Env-driven cell-cell fusion. HeLa-JRFL Env/CEM21 cell fusion, luciferase. inhibition, % at 12.3 µM. 360,000 compounds, 1.1% hits. AID 651610;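 active = mean replicate inhibition score of at least 50 and every replicate individually at or above 50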;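 note: 0% = plate neutral controls and 100% = maraviroc near 300 nM; one replicate is shown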
# Yeast UUG start – yeast start codon fidelity modulation; AID 602363; 350,000 compounds, 0.13% hits; activity score, % at 18.7 µM; S. cerevisiae UUG-firefly luciferase reporter, luminescence/redox ratio;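 active = replicate mean at a twofold rise or more, about +100% in these data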;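 note: firefly luciferase made from a UUG start codon reports start codon fidelity; reporter light over untreated wells divided by growth signal over untreated wells; some hits fall short of that in this replicate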
# The depositor's hits bear a star; [ ] = remark or other dose. An excerpt; the hit share may differ from the screen's.
SMILES,Env fusion inh,Yeast UUG start
COc1ccc(NC(=O)Nc2ccc3c(c2)C(=O)N([C@H](C)CO)C[C@@H](C)[C@@H](CN(C)S(=O)(=O)c2cccs2)OCCCC[C@H](C)O3)cc1,-8[16.7 µM],-12
C[C@@H]1CN([C@@H](C)CO)C(=O)c2cccc(NC(=O)Nc3ccc4c(c3)OCO4)c2O[C@@H]1CN(C)Cc1ccc(-c2ccccc2)cc1,-9[16.7 µM],1
C[C@@H]1CN([C@H](C)CO)C(=O)c2cc(NS(=O)(=O)c3ccc(Cl)cc3)ccc2O[C@H]1CN(C)Cc1ccc(C(F)(F)F)cc1,-13[16.7 µM],-4
C[C@@H]1CN([C@@H](C)CO)C(=O)c2cccc(NC(=O)c3cnccn3)c2O[C@H]1CN(C)Cc1ccc(Cl)c(Cl)c1,63*[16.7 µM],31
Cc1ccc(S(=O)(=O)Nc2ccc3c(c2)CC(=O)N([C@@H](C)CO)C[C@@H](C)[C@@H](CN(C)Cc2ccc(C(=O)Nc4ccccc4N)cc2)O3)cc1,-91[16.7 µM],-3
C[C@@H]1CCCCO[C@H](CN(C)Cc2ccc(C(F)(F)F)cc2)[C@@H](C)CN([C@@H](C)CO)C(=O)c2cc(NC(=O)c3ccncc3)ccc2O1,-63[16.7 µM],0
C[C@@H]1CN([C@H](C)CO)C(=O)c2cc(NC(=O)Nc3ccc(F)cc3)ccc2O[C@@H](C)CCCCO[C@H]1CN(C)C(=O)NC1CCCCC1,3[16.7 µM],0
C[C@@H]1CN([C@@H](C)CO)C(=O)c2cc(C3=CCCCC3)cnc2O[C@H]1CN(C)C(=O)c1ccccn1,-31[16.7 µM],-6
CCCC(O)C#Cc1cnc2c(c1)C(=O)N([C@H](C)CO)C[C@H](C)[C@H](CN(C)C(=O)NC1CCCCC1)O2 (stereo not given in full),9[16.7 µM],5
CCCNC(=O)N[C@H]1CC[C@H](CCn2cc(C3CCCCC3)nn2)O[C@H]1CO,-4[16.7 µM],-9
O=C(Nc1cccc(F)c1)N[C@@H]1CC[C@@H](CCn2cc(Cc3ccccc3)nn2)O[C@H]1CO,11[16.7 µM],-17
Cc1noc(C)c1S(=O)(=O)N(C)C[C@H]1OCCCC[C@@H](C)Oc2ccc(NC(=O)NC3CCCCC3)cc2C(=O)N([C@H](C)CO)C[C@@H]1C,-12[16.7 µM],-11
C[C@H]1CCCCO[C@H](CN(C)Cc2ccc(C(F)(F)F)cc2)[C@@H](C)CN([C@@H](C)CO)C(=O)c2cc(NC(=O)Nc3ccc(F)cc3)ccc2O1,58*[16.7 µM],2
CNC[C@@H]1Oc2ccc(NC(=O)c3ccncc3)cc2C(=O)N([C@H](C)CO)C[C@@H]1C,7[16.7 µM],-7
C[C@H](CO)N1C[C@H](C)[C@H](CN(C)C(=O)Nc2cccc3ccccc23)Oc2ccc(NS(=O)(=O)c3ccc(Cl)cc3)cc2CC1=O,-1[16.7 µM],-18
Cc1ccc(S(=O)(=O)N(C)C[C@H]2Oc3c(NC(=O)Nc4ccc(F)cc4)cccc3C(=O)N([C@H](C)CO)C[C@H]2C)cc1,4[16.7 µM],-9
O=C(C[C@@H]1C=C[C@H](NC(=O)Nc2ccccc2)[C@@H](CO)O1)NCc1cccc(F)c1,2[16.7 µM],-9
C[C@@H]1CN([C@H](C)CO)C(=O)c2cc(NS(=O)(=O)c3ccc(Cl)cc3)ccc2O[C@@H](C)CCCCO[C@H]1CN(C)S(=O)(=O)c1ccc(Cl)cc1,-62[16.7 µM],-11
CNC[C@@H]1Oc2ccc(NC(=O)C3CC3)cc2C(=O)N([C@H](C)CO)C[C@@H]1C,-2[16.7 µM],-30
COc1ccc(C#Cc2ccc3c(c2)O[C@H](CN(C)C)[C@@H](C)CN([C@H](C)CO)S3(=O)=O)cc1,9[16.7 µM],-13
Cc1ccc(S(=O)(=O)Nc2ccc3c(c2)CC(=O)N([C@@H](C)CO)C[C@@H](C)[C@@H](CN(C)C(=O)Nc2cccc4ccccc24)O3)cc1,-9[16.7 µM],-4
O=C(N[C@@H]1CC[C@H](CC(=O)N2CCc3ccccc3C2)O[C@H]1CO)C1CCOCC1,0[16.7 µM],-2
C[C@@H]1CN([C@@H](C)CO)C(=O)c2cc(-c3ccncc3)cnc2O[C@@H]1CN(C)C(=O)CN1CCOCC1,12[16.7 µM],3
COc1ccc(-c2ccc([C@@H]3[C@@H](CO)N(C(=O)c4cccc(F)c4)[C@H]3C#N)cc2)cc1,5[16.7 µM],-11
CC(C)NC(=O)N(C)C[C@H]1Oc2ccc(NC(=O)Nc3ccc(C(F)(F)F)cc3)cc2C(=O)N([C@@H](C)CO)C[C@H]1C,12[16.7 µM],12
# (list continues)
SMILES,Env fusion inh,Yeast UUG start
CCS(=O)(=O)N[C@@H]1C=C[C@H](CC(=O)N2CCCCC2)O[C@H]1CO,-75[16.7 µM],-4
C[C@H](CO)N1C[C@H](C)[C@H](CN(C)Cc2ccncc2)Oc2c(NC(=O)Nc3ccc4c(c3)OCO4)cccc2C1=O,-17[16.7 µM],-2
C[C@@H]1CCCCO[C@@H](CN(C)S(=O)(=O)c2cn(C)cn2)[C@H](C)CN([C@H](C)CO)C(=O)c2cc(NS(=O)(=O)c3ccccc3)ccc2O1,-151[16.7 µM],15
C[C@H]1CN([C@@H](C)CO)C(=O)c2cc(C#CC(C)(C)O)cnc2O[C@H]1CN(C)C(=O)CC1CC1,-5[16.7 µM],-10
C/C=C/c1ccc2c(c1)O[C@H](CN(C)C(=O)CC1CC1)[C@@H](C)CN([C@H](C)CO)S2(=O)=O,20[16.7 µM],24
Cc1ccc(S(=O)(=O)Nc2ccc3c(c2)CC(=O)N([C@H](C)CO)C[C@@H](C)[C@H](CN(C)S(=O)(=O)c2cn(C)cn2)O3)cc1,4[16.7 µM],-7
C[C@H]1CN([C@@H](C)CO)S(=O)(=O)c2ccc(C#Cc3ccncc3)cc2O[C@@H]1CN(C)C(=O)C1CC1,-18[16.7 µM],-25
COc1cccc(S(=O)(=O)Nc2ccc3c(c2)C(=O)N(C)C[C@@H](OC)[C@H](C)CN[C@@H](C)CO3)c1,2[16.7 µM],-2
O=C(C[C@H]1C[C@H]2c3cc(NS(=O)(=O)c4ccc(F)cc4)ccc3O[C@H]2[C@@H](CO)O1)NCc1cccc(F)c1,17[16.7 µM],15
C[C@H]1CCCCO[C@H](CN(C)S(=O)(=O)c2ccc(F)cc2)[C@@H](C)CN([C@@H](C)CO)C(=O)c2cc(NS(=O)(=O)c3ccc(F)cc3)ccc2O1,-40[16.7 µM],8
C[C@H]1CN([C@@H](C)CO)S(=O)(=O)c2ccc(-c3cccnc3)cc2O[C@H]1CN(C)C(=O)c1cccc(F)c1,26[16.7 µM],17
C[C@H]1CN([C@@H](C)CO)C(=O)c2cc(-c3ccccc3F)cnc2O[C@H]1CN(C)C(=O)NC1CCCC1,1[16.7 µM],9
C[C@@H]1CN([C@H](C)CO)C(=O)c2cccc(NC(=O)Nc3ccc4c(c3)OCO4)c2O[C@@H]1CN(C)C(=O)Nc1ccccc1,-17[16.7 µM],15
Cc1noc(C)c1S(=O)(=O)Nc1ccc2c(c1)C(=O)N([C@@H](C)CO)C[C@@H](C)[C@H](CN(C)S(=O)(=O)c1ccc(Cl)cc1)O2,17[16.7 µM],-12
CC(=O)N(C)C[C@@H]1Oc2cc(-c3cncnc3)ccc2S(=O)(=O)N([C@H](C)CO)C[C@H]1C,-13[16.7 µM],-11
CNC[C@H]1OCCCC[C@H](C)Oc2ccc(NC(=O)C3CCCCC3)cc2C(=O)N([C@H](C)CO)C[C@@H]1C,-4[16.7 µM],16
C/C=C/c1ccc2c(c1)O[C@@H](CN(C)C(=O)C1CCCCC1)[C@H](C)CN([C@H](C)CO)S2(=O)=O,18[16.7 µM],27
COCCNC(=O)C[C@@H]1C=C[C@H](NS(=O)(=O)c2ccc(C)cc2)[C@@H](CO)O1,3[16.7 µM],0
O=C(C[C@H]1C[C@H]2c3cc(NC(=O)Nc4ccccc4)ccc3O[C@H]2[C@H](CO)O1)NCc1ccncc1,-13[16.7 µM],-8
C[C@H]1CN([C@@H](C)CO)C(=O)c2cccc(NC(=O)C3CCOCC3)c2O[C@H]1CN(C)Cc1ccc(C(=O)O)cc1,12[16.7 µM],-14
C[C@H](CO)N1C[C@H](C)[C@H](CN(C)C(=O)Nc2ccccc2)Oc2c(NS(=O)(=O)c3cccs3)cccc2C1=O,-164[16.7 µM],-2
CCCC(=O)Nc1ccc2c(c1)OC[C@@H](C)N(Cc1ccccc1)C[C@H](C)[C@H](OC)CN(C)C2=O,-53[16.7 µM],-11
Cc1ccc(S(=O)(=O)N(C)C[C@H]2OCCCC[C@H](C)Oc3ccc(NS(C)(=O)=O)cc3C(=O)N([C@@H](C)CO)C[C@@H]2C)cc1,1[16.7 µM],10
C[C@@H]1CCCCO[C@@H](CN(C)C(=O)Nc2cccc3ccccc23)[C@H](C)CN([C@@H](C)CO)C(=O)c2cc(NC(=O)Cc3ccccc3)ccc2O1,-72[16.7 µM],-4
CC(=O)N[C@H]1CC[C@H](CCNC(=O)C2CCC2)O[C@H]1CO,-7[16.7 µM],-5

# Given field by field: entries from further up.
C[C@@H]1CCCCO[C@@H](CN(C)S(=O)(=O)c2cn(C)cn2)[C@H](C)CN([C@H](C)CO)C(=O)c2cc(NS(=O)(=O)c3ccccc3)ccc2O1
  Env fusion inh: -151[16.7 µM] | Yeast UUG start: 15

C[C@H]1CN([C@@H](C)CO)C(=O)c2cc(C#CC(C)(C)O)cnc2O[C@H]1CN(C)C(=O)CC1CC1
  Env fusion inh: -5[16.7 µM] | Yeast UUG start: -10

C/C=C/c1ccc2c(c1)O[C@H](CN(C)C(=O)CC1CC1)[C@@H](C)CN([C@H](C)CO)S2(=O)=O
  Env fusion inh: 20[16.7 µM] | Yeast UUG start: 24

Cc1ccc(S(=O)(=O)Nc2ccc3c(c2)CC(=O)N([C@H](C)CO)C[C@@H](C)[C@H](CN(C)S(=O)(=O)c2cn(C)cn2)O3)cc1
  Env fusion inh: 4[16.7 µM] | Yeast UUG start: -7

# Later entries.
SMILES,Env fusion inh,Yeast UUG start
COC(=O)C[C@@H]1CC[C@@H]2[C@H](COc3ccc(NC(=O)c4ccc(F)c(F)c4)cc3C(=O)N2C)O1,-5[16.7 µM],-2
COc1ccc(NC(=O)Nc2ccc3c(c2)C(=O)N([C@@H](C)CO)C[C@@H](C)[C@H](CN(C)Cc2ccc(Cl)c(Cl)c2)OCCCC[C@@H](C)O3)cc1,28[16.7 µM],6
C[C@H]1CN([C@@H](C)CO)C(=O)c2cccc(NS(=O)(=O)c3cccs3)c2O[C@@H]1CN(C)CC1CCCCC1,-10[16.7 µM],6
C[C@H](CO)N1C[C@H](C)[C@H](CN(C)C(=O)CCC(F)(F)F)OCCCC[C@H](C)Oc2ccc(NC(=O)c3ccccc3)cc2C1=O,-35[16.7 µM],-19
Cc1cc(C(=O)Nc2cccc3c2O[C@H](CN(C)Cc2ccc(C(F)(F)F)cc2)[C@H](C)CN([C@@H](C)CO)C3=O)n(C)n1,-26[16.7 µM],4
O=C(N[C@H]1C=C[C@H](CC(=O)N2CCOCC2)O[C@H]1CO)c1ccc2c(c1)OCO2,-3[16.7 µM],-2
C[C@@H]1CN([C@H](C)CO)C(=O)c2cc(C#CC3CC3)cnc2O[C@H]1CN(C)Cc1ccccc1C(=O)O,-10[16.7 µM],5
CS(=O)(=O)N1C[C@@H](O)COC[C@H]2O[C@H](CC(=O)NCc3ccccc3)CC[C@@H]21,-9[16.7 µM],0
COCC(=O)N(C)C[C@@H]1Oc2ncc(-c3ccccc3F)cc2C(=O)N([C@@H](C)CO)C[C@@H]1C,4[16.7 µM],-2
O=C(C[C@@H]1C=C[C@H](NC(=O)Nc2ccc3c(c2)OCO3)[C@@H](CO)O1)NCc1ccc(F)cc1,-3[16.7 µM],-11
C[C@@H]1CCCCO[C@H](CN(C)S(=O)(=O)c2ccc(Cl)cc2)[C@@H](C)CN([C@H](C)CO)C(=O)c2cc(NS(=O)(=O)c3cccs3)ccc2O1,6[16.7 µM],10
COc1cccc(-c2cnc3c(c2)C(=O)N([C@H](C)CO)C[C@H](C)[C@@H](CN(C)CC2CCOCC2)O3)c1,-37[16.7 µM],-5
COc1ccccc1S(=O)(=O)N[C@H]1CC[C@@H](CC(=O)N2CCOCC2)O[C@@H]1CO,-3[16.7 µM],-1
C[C@@H]1CN([C@@H](C)CO)C(=O)c2cccc(NC(=O)c3nc4ccccc4s3)c2O[C@H]1CN(C)S(=O)(=O)c1ccccc1,-39[16.7 µM],-3
CNC[C@H]1Oc2ccc(NC(=O)CCN3CCOCC3)cc2C(=O)N([C@H](C)CO)C[C@H]1C,1[16.7 µM],8
C[C@@H]1CCCCO[C@H](CN(C)C(=O)c2ccccc2)[C@@H](C)CN([C@@H](C)CO)C(=O)c2cc(NS(=O)(=O)c3cn(C)cn3)ccc2O1,16[16.7 µM],11

# Gathered by group, the entries above with a thiophene ring, fused or not.
SMILES,Env fusion inh,Yeast UUG start
COc1ccc(NC(=O)Nc2ccc3c(c2)C(=O)N([C@H](C)CO)C[C@@H](C)[C@@H](CN(C)S(=O)(=O)c2cccs2)OCCCC[C@H](C)O3)cc1,-8[16.7 µM],-12
C[C@H](CO)N1C[C@H](C)[C@H](CN(C)C(=O)Nc2ccccc2)Oc2c(NS(=O)(=O)c3cccs3)cccc2C1=O,-164[16.7 µM],-2
C[C@H]1CN([C@@H](C)CO)C(=O)c2cccc(NS(=O)(=O)c3cccs3)c2O[C@@H]1CN(C)CC1CCCCC1,-10[16.7 µM],6
C[C@@H]1CCCCO[C@H](CN(C)S(=O)(=O)c2ccc(Cl)cc2)[C@@H](C)CN([C@H](C)CO)C(=O)c2cc(NS(=O)(=O)c3cccs3)ccc2O1,6[16.7 µM],10
